Compound activity (PubChem BioAssay)
Kir21 block – inhibitors of mouse Kir2.1 inward-rectifier potassium channel. P35561. HEK293-Kir2.1, FluxOR thallium flux fluorescence; hits give low values. B-score at 10 µM. 310,000 compounds, 0.85% hits;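 active means fluorescence ratio B-score at or below minus 3 SD of library scores, with starting-brightness B-score within 2 SD, cut at about -4.2 in these data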;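 further: channel flux triggered by added potassium and thallium sulfate stimulus; B-score of peak minus minimum fluorescence over baseline after thallium stimulus; more negative B-score means stronger Kir2.1 block with less thallium influx; some compounds called inactive have numbers as strong as hits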
Target sequence (P35561 whole entry, looked up): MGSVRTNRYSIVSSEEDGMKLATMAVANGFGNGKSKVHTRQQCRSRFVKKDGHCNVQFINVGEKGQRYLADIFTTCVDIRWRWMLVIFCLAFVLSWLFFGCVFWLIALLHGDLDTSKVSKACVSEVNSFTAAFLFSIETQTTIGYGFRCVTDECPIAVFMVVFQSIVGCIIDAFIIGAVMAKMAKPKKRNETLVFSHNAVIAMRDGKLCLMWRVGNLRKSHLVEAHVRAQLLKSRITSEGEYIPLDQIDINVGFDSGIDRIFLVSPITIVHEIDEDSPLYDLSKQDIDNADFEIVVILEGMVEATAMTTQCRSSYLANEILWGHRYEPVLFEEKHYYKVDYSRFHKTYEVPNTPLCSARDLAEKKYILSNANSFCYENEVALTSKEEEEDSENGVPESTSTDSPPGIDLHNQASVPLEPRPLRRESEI
Numbers without * were called inactive.

For Cn1c(=O)c2c(nc(-n3ccnc3)n2Cc2ccc(Cl)cc2Cl)n(C)c1=O the results were Kir21 block 0.94.
`Cc1csc(NC(=O)c2cc3c(s2)CCCCC3)n1` gave Kir21 block 1.1.
`CCOCCCNC(=O)/C(C#N)=C/c1ccc(C)o1` gave Kir21 block -0.2.
O=C(Cn1nnc2ccccc21)N1CCCCC1 was read as Kir21 block -0.78.
For COc1ccc(Cl)cc1NC(=O)CCc1nnc2ccc(N3CCN(C)CC3)nn12 the results were Kir21 block -0.68.
O=C(NCCN1CCOCC1)c1cc(-c2ccc(F)cc2)on1 was read as Kir21 block 0.63.
`CC1CCC2(CC1)SCC(=O)N2c1ccc(F)cc1` (stereo not given) gave Kir21 block -1.6.
For CC(C)Oc1ccc(CCNC(=O)C2CCC(=O)N(C3CCCCCC3)C2)cc1 (stereo not given) the results were Kir21 block -0.96.
`Cc1ccc(C(CNS(=O)(=O)c2ccc(F)cc2)N2CCN(C)CC2)cc1` (stereo not given) gave Kir21 block -1.9.
For COc1ccc(-c2n[nH]c(=S)n2CC(C)C)cc1 the results were Kir21 block -0.3.
`Cc1ccc(N(C(=O)CCC(=O)Nc2cc(C)on2)C(C(=O)NC2CCCC2)c2cccs2)cc1` (stereo not given) gave Kir21 block -2.
For COc1ccc(CCNC(=O)CNC(=O)Cn2cnc3sc(C)c(C)c3c2=O)cc1OC the results were Kir21 block -0.03.
Screening O=C(c1ccccc1)N1CCN(c2ncccn2)CC1 returned Kir21 block -0.43.
For CCS(=O)(=O)N1Cc2ccccc2CC1C(=O)Nc1ccc(F)c(F)c1 (stereo not given) the results were Kir21 block 1.5.
CN(C)c1ccc(N2CC(C)(C)C2=O)cc1 was read as Kir21 block -0.39.
`CCC(=O)N1CCc2cc(S(=O)(=O)N3CCN(c4ccccc4)CC3)ccc21` gave Kir21 block 0.69.
O=C(NCC(=O)N(c1cccc(F)c1)C(C(=O)NCC1CCCO1)c1ccccc1)c1ccco1 (stereo not given) was read as Kir21 block 0.3.
O=C(Nc1ccccc1F)c1ccc(S(=O)(=O)NCC2CCCO2)cc1 (stereo not given) was read as Kir21 block 0.61.
`CC(=O)Nc1c2c(nn1-c1ccccc1C)CSC2` gave Kir21 block 1.5.
`CCOC(=O)N1CCC(Nc2c(NCCCOC)c(=O)c2=O)CC1` gave Kir21 block -0.17.
`CN(C)c1ccc(C2CC(=O)NC3=C2C(=O)CC(C)(C)C3)cc1` (stereo not given) gave Kir21 block 0.67.
For Cc1ccc(C)c(N2CCN(C(=O)CCC(=O)Nc3nnc(CC(C)C)s3)CC2)c1 the results were Kir21 block 0.04.
Screening COC(=O)c1ccc(OCC(=O)c2ccc(O)cc2O)cc1 returned Kir21 block -0.33.
`Cc1c(/C=N/NC(=O)CNc2ccccc2)c2ccccn2c1C(=O)c1ccc(Cl)cc1` gave Kir21 block -1.4.
For S=C1NNC2(CC3CC2C2CCCC32)NN1 (stereo not given) the results were Kir21 block -0.35.
For COc1cccc(N2CCN(C(=O)c3ccc(=O)oc3)CC2C)c1 (stereo not given) the results were Kir21 block 1.7.
For Cc1ccc(C2=NS(=O)(=O)N(C)C(C(=O)NCc3ccc(F)cc3)=C2)cc1 the results were Kir21 block 0.04.
`CN(CCc1ccccn1)C(=O)CCC1CCCN(C(=O)c2ccsc2)C1` (stereo not given) gave Kir21 block -1.6.
For COc1ccc2[nH]c(C(=O)Nc3ccc4c(c3)OCO4)cc2c1 the results were Kir21 block 0.28.
For COc1cc(OC)c(C(=O)OCC(=O)Nc2cc(C)on2)cc1OC the results were Kir21 block -0.04.
`CC(=O)Nc1ccc(C(=O)COC(=O)CCN2C(=O)C3CC=CCC3C2=O)cc1` (stereo not given) gave Kir21 block 0.85.
O=C(OCCCC(=O)N1CCOCC1)c1ccccc1 was read as Kir21 block -2.
Screening CNC(=O)COc1ccc(Cl)c2cccnc12 returned Kir21 block 1.7.
`O=C(Nc1cccc(NC(=O)C2C3CC4OC(=O)C2C4C3)c1)c1ccccc1` (stereo not given) gave Kir21 block 0.59.
For O=C(CCc1nnc(C2CCCCC2)o1)NCc1ccc(F)c(F)c1 the results were Kir21 block -1.2.
For COc1ccc(C(=O)NC(=S)NCc2ccco2)cc1 the results were Kir21 block 0.68.
For O=C1c2cnc3nc(SCc4ccccc4)nn3c2CC2c3ccccc3CCN12 (stereo not given) the results were Kir21 block -0.34.
`NC(=O)CSc1n[nH]c(-c2ccco2)n1` gave Kir21 block -0.4.
`CN1CCN(c2ccc(S(=O)(=O)N3CCCCC3)cc2[N+](=O)[O-])CC1` gave Kir21 block -0.8.
Screening Cc1ccc(C2=NCCn3c2c2ccc([N+](=O)[O-])cc2[n+]3[O-])cc1 returned Kir21 block 0.59.
CCOc1cccc(N2C(=O)CC(N3CCN(c4nc5ccccc5s4)CC3)C2=O)c1 (stereo not given) was read as Kir21 block -0.79.
Screening CC(C)(C)OC(=O)N1CCCC1C(=O)O (stereo not given) returned Kir21 block 1.3.
COCCCNC(=O)CN1C(=O)/C(=C/c2ccccc2C)Sc2ccccc21 was read as Kir21 block 2.1.
CCCCCOc1ccc(/C=c2\sc3nc(=O)c(-c4ccccc4)nn3c2=O)cc1OC was read as Kir21 block -1.2.
N/C(=N\S(=O)(=O)c1cc(C(F)(F)F)cc(C(F)(F)F)c1)c1cccs1 was read as Kir21 block -0.3.
`COC(=O)c1ccccc1NC(=O)NCc1c(C)nn(C)c1C` gave Kir21 block -1.8.
Screening CS(=O)(=O)N(Cc1ccc(C(=O)NC2CCCCC2O)cc1)c1ccccc1 (stereo not given) returned Kir21 block 0.29.
O=C(CN1C(=O)C2(OCCO2)c2cc(Br)ccc21)NO was read as Kir21 block -2.6.
Screening CC1Cc2ccccc2N1C(=O)c1cnc2n(c1=O)CCS2 (stereo not given) returned Kir21 block -1.2.
For Cc1cccc(NC(=O)CNC(=O)c2ccccc2Cl)n1 the results were Kir21 block -0.01.
Screening CC1CCC/C(=C\Nc2ccccc2C(=O)O)C1=O (stereo not given) returned Kir21 block 0.43.
Screening Cc1cccc(CN2CCOCCS2(=O)=O)c1 returned Kir21 block -0.04.
Screening CN(C)c1cc[n+](CC(=O)Nc2ccc(Cl)c([N+](=O)[O-])c2)cc1 returned Kir21 block 0.86.
Screening CCC(=O)Nc1ccc(NC(=O)CSc2nc3cc4c(cc3cc2C)CCC4)cc1 returned Kir21 block -1.2.
For COc1cccc(-n2nnc3c(=O)n(Cc4cccc(C)c4)cnc32)c1 the results were Kir21 block 1.5.
For CSc1nnc([C@H](C)NC(=O)OC(C)(C)C)o1 the results were Kir21 block -1.9.
Screening O=C(O)COc1ccc(/C=C2\SC(=Nc3ccccc3)N(c3ccccc3)C2=O)cc1 returned Kir21 block 2.2.
Screening CCOC(=O)N1CCC(NC(=O)c2ccc3c(c2)N=C(CC)c2cc(C)ccc2S3)CC1 returned Kir21 block 2.
Screening COC(=O)c1ccccc1NC(=O)CSc1ncccn1 returned Kir21 block -0.68.
For CCOC(=O)Cc1nc2ccccc2[nH]1 the results were Kir21 block -0.23.

16 compounds already listed, arranged by heavy-atom count, ascending.
For CCOC(=O)Cc1nc2ccccc2[nH]1 the results were Kir21 block -0.23.
CN(C)c1ccc(N2CC(C)(C)C2=O)cc1 was read as Kir21 block -0.39.
For CSc1nnc([C@H](C)NC(=O)OC(C)(C)C)o1 the results were Kir21 block -1.9.
`CC(=O)Nc1c2c(nn1-c1ccccc1C)CSC2` gave Kir21 block 1.5.
O=C(OCCCC(=O)N1CCOCC1)c1ccccc1 was read as Kir21 block -2.
Screening COC(=O)c1ccc(OCC(=O)c2ccc(O)cc2O)cc1 returned Kir21 block -0.33.
For COc1ccc2[nH]c(C(=O)Nc3ccc4c(c3)OCO4)cc2c1 the results were Kir21 block 0.28.
For COc1cccc(N2CCN(C(=O)c3ccc(=O)oc3)CC2C)c1 (stereo not given) the results were Kir21 block 1.7.
For CCS(=O)(=O)N1Cc2ccccc2CC1C(=O)Nc1ccc(F)c(F)c1 (stereo not given) the results were Kir21 block 1.5.
For Cn1c(=O)c2c(nc(-n3ccnc3)n2Cc2ccc(Cl)cc2Cl)n(C)c1=O the results were Kir21 block 0.94.
Screening CS(=O)(=O)N(Cc1ccc(C(=O)NC2CCCCC2O)cc1)c1ccccc1 (stereo not given) returned Kir21 block 0.29.
`CC(=O)Nc1ccc(C(=O)COC(=O)CCN2C(=O)C3CC=CCC3C2=O)cc1` (stereo not given) gave Kir21 block 0.85.
For O=C1c2cnc3nc(SCc4ccccc4)nn3c2CC2c3ccccc3CCN12 (stereo not given) the results were Kir21 block -0.34.
CCOc1cccc(N2C(=O)CC(N3CCN(c4nc5ccccc5s4)CC3)C2=O)c1 (stereo not given) was read as Kir21 block -0.79.
Screening CCOC(=O)N1CCC(NC(=O)c2ccc3c(c2)N=C(CC)c2cc(C)ccc2S3)CC1 returned Kir21 block 2.
`Cc1ccc(N(C(=O)CCC(=O)Nc2cc(C)on2)C(C(=O)NC2CCCC2)c2cccs2)cc1` (stereo not given) gave Kir21 block -2.

The list continues:
For O=C(Nc1ccc2c(c1)OCO2)N1CCN(c2ccccc2)CC1 the results were Kir21 block 0.7.
`COc1ccc(CCN2CN(S(=O)(=O)c3ccccc3)c3nc4ccccc4nc32)cc1OC` gave Kir21 block -0.82.
For COc1cc(/C=C2\C(=O)NN(c3ccccc3)C2=O)ccc1OCC(N)=O the results were Kir21 block -1.
`Cc1nnsc1C(=O)NNC(=O)c1ccc(C(F)(F)F)cc1` gave Kir21 block -0.88.
`CO/N=C/NC(=O)NOCc1c(Cl)cccc1Cl` gave Kir21 block -0.22.
`CC1CCCN(C(=O)c2cccc(S(=O)(=O)N3CCCc4ccccc43)c2)C1` (stereo not given) gave Kir21 block -3.3.
`Nc1nonc1C(=O)N/N=C/c1ccc(-c2cccc([N+](=O)[O-])c2)o1` gave Kir21 block 0.22.
Screening COC(=O)CCCC1=CC2=C(c3ccccc3)C(=O)C(C)(OC(=O)C3CCCC3)C(=O)C2=CN1CCN1CCOCC1 (stereo not given) returned Kir21 block -0.06.
CCOC(=O)c1c(NC(=O)CN2CCC(C)CC2)sc(C)c1C was read as Kir21 block 0.33.
CC(C)CCNC(=O)C(c1cccs1)N(CC1CCCO1)C(=O)Cn1nnc2ccccc21 (stereo not given) was read as Kir21 block -1.1.
Screening CCCCNC(=O)C1c2ccccc2C(=O)N(c2ccc(OC)cc2)C1c1ccc(OC)cc1 (stereo not given) returned Kir21 block 0.02.
Cc1ccc(-c2nn3c(C)nnc3c3ccccc23)cc1S(=O)(=O)NC(C)c1ccccc1 (stereo not given) was read as Kir21 block -0.07.

Ordered by count of non-hydrogen atoms (rising): some entries from above
`Cc1nnsc1C(=O)NNC(=O)c1ccc(C(F)(F)F)cc1` gave Kir21 block -0.88.
Cc1ccc(-c2nn3c(C)nnc3c3ccccc23)cc1S(=O)(=O)NC(C)c1ccccc1 (stereo not given) was read as Kir21 block -0.07.
Screening COC(=O)CCCC1=CC2=C(c3ccccc3)C(=O)C(C)(OC(=O)C3CCCC3)C(=O)C2=CN1CCN1CCOCC1 (stereo not given) returned Kir21 block -0.06.

Further structures.
For O=C(CNC(=O)c1ccco1)NCC(=O)OCc1ccccc1Br the results were Kir21 block -0.05.
`COc1ccc(-c2cc3cc(OC)c(OC)cc3cn2)cc1OC` gave Kir21 block 0.77.
`O=S(=O)(c1ccccc1)N1CCN(C2CCCCCCC2)CC1` gave Kir21 block 0.92.
`Cn1ccs/c1=N\C(=O)Nc1ccccc1` gave Kir21 block -0.04.
For COc1ccc(CCCc2n[nH]c(=S)o2)c(C)c1 the results were Kir21 block -0.95.
CC(C)OC(=O)CSc1nnc(-c2ccccn2)n1C was read as Kir21 block 0.02.
For CC(=O)NC(NC(=S)Nc1cccc(Br)c1)C(Cl)(Cl)Cl (stereo not given) the results were Kir21 block -1.6.
`CC1=CC=CN2CC(O)CN=C12` (stereo not given) gave Kir21 block 0.52.
For NNC(=O)c1ccc(-c2ccccc2F)cc1 the results were Kir21 block -0.66.
`O=C(Nc1cccnc1)C1CCCN1S(=O)(=O)c1ccc(Cl)c(Cl)c1` (stereo not given) gave Kir21 block 0.01.
O=C(COC(=O)c1cccc(S(=O)(=O)N2CCc3ccccc32)c1)Nc1ccc(Cl)cn1 was read as Kir21 block 0.83.
`Cc1cc(=O)n2[nH]c(-c3sccc3-n3c(C)ccc3C)cc2n1` gave Kir21 block 0.38.
For O=c1c2ccccc2oc2nc(-c3ccco3)n(Cc3ccccc3)c(=O)c12 the results were Kir21 block 2.
COc1ccc(CCNc2ccc(C(CC(N)=O)NC(=O)c3ccc(Br)cc3)cc2[N+](=O)[O-])cc1 (stereo not given) was read as Kir21 block 0.29.
COc1ccc2c(c1)c1nnc(SCC(=O)N3C(C)CCCC3C)nc1n2C (stereo not given) was read as Kir21 block -0.65.
For CCn1cnc2c1c(=O)n(CC(=O)Nc1ccc(C(N)=O)cc1)c(=O)n2Cc1ccccc1 the results were Kir21 block -0.03.
Screening CC(=O)Nc1ccc2nc(NC(=O)COc3ccc([N+](=O)[O-])cc3)sc2c1 returned Kir21 block 0.26.
CN1CCc2c(c3c(n2C)CCN(C)C3c2ccc(F)cc2)C1c1ccc(F)cc1 (stereo not given) was read as Kir21 block -0.94.
Screening COc1ccc(C(=O)N(CC(=O)Nc2sc(C)c(C)c2C(N)=O)C2CCCC2)cc1 returned Kir21 block 0.86.
For COc1cccc(-c2cc(C(=O)NC3CCCC3)c3ccccc3n2)c1 the results were Kir21 block 0.56.
Screening Fc1ccc(Oc2nccc(-c3ccc(Cl)cc3)n2)cc1 returned Kir21 block -3.2.
`Cn1cnnc1SCC(=O)NCc1cccc(C(F)(F)F)c1` gave Kir21 block -0.7.
`Cc1ccc(-c2nnn(CC(=O)N(c3cccc(F)c3)C(C(=O)NC3CCCC3)c3ccco3)n2)o1` (stereo not given) gave Kir21 block -3.5.
CCCCNC(=O)/C=C/c1ccc(S(=O)(=O)Nc2ccc(OC)cc2)cc1 was read as Kir21 block -0.37.
`Nc1nc(N2CCOCC2)nc2ccccc12` gave Kir21 block 0.09.
For CCc1nnc(NC(=O)CSc2nc3ccccc3c(=O)n2CCCOC)s1 the results were Kir21 block -0.24.
COc1cc(OC)nc(-n2ncc(OC)c(Br)c2=O)n1 was read as Kir21 block -1.6.
CCc1ccc(S(=O)(=O)NCc2cn3ccccc3n2)s1 was read as Kir21 block -1.6.
For COc1ccc(NC(=O)Nc2cc(C)cc(C)c2)cn1 the results were Kir21 block 1.1.

This is a subset, and most or all hits are left out here.
